UUG fidelity: alters start codon recognition fidelity in yeast | S. cerevisiae UUG-firefly luciferase reporter, luminescence/redox ratio | activity score, % at 18.7 µM | 350,000 tested, 0.13% active | AID 602363;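 active means replicate mean at a twofold rise or more, about +100% in these data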;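 further: firefly luciferase made from a UUG start codon reports start codon fidelity; reporter light over untreated wells divided by growth signal over untreated wells; some hits fall short of that in this replicate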
eIF4H FP inh: inhibitors of RNA binding by human eIF4H; Q15056; eIF4H fluorescence polarization binding assay; inhibition, % at 35 µM; 290,000 tested, 0.94% active;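 active means 50% or more with normal probe brightness, or confirmed in later tests; inconclusive means above 50% with abnormal brightness, or retests that disagree; inactive means below 50% or failed in later tests; about a fifth of its hits are not listed in these tables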;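 further: calls also rest on retests at 20 µM and on dose response follow-up; 0% = protein and probe with vehicle and 100% = probe without protein; strong numbers were not always called active; many hits fall short of the cut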
MT1-MMP act inh: MT1-MMP (human) activation inhibition; 360,000 tested, 0.061% active; GFP/RFP ratio change, % at 20 µM; HT1080 RFP-PRO-GFP cells, GFP/RFP ratio fluorescence, overnight; percent of plate control window, DMSO zero; P50281;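 active means GFP/RFP ratio change of at least 30% with cell ATP level not reduced by more than half and red fluorescence within 50% of control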; further: strong numbers were not always called active
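Test system: HT1080 RFP-PRO-GFP cells; Benchmarks: DMSO and RFP-L50D-GFP cell wells; Timing: cells overnight before dosing, compound overnight, 37 °C, 5% CO2; Compound: one 20 µM compound dose with 1% DMSO; Read-out: GFP/RFP fluorescence ratio.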
Env fusion inh: HIV envelope-mediated fusion inhibition; 360,000 tested, 1.1% active; AID 651610; HeLa-JRFL Env/CEM21 cell fusion, luciferase; inhibition, % at 12.3 µM;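 active means mean replicate inhibition score of at least 50 and every replicate individually at or above 50; inconclusive means only one of the two criteria met; inactive means mean below 50 and not all replicates reaching 50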;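 further: 0% = plate neutral controls and 100% = maraviroc near 300 nM; one replicate is shown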
PABP polyA inh: blocks human PABP binding to poly(A) RNA; fluorescence polarization; inhibition, % at 35 µM; 290,000 tested, 1% active;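 active means 50% or more with normal probe brightness, or confirmed in later tests; inconclusive means above 50% with abnormal brightness, or retests that disagree; inactive means below 50% or failed in later tests; about a fifth of its hits are not listed in these tables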;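 further: calls also rest on retests at 20 µM and on dose response follow-up; controls were probe without protein and protein plus probe with vehicle; some compounds called inactive have numbers as strong as hits; many hits fall short of the cut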
Target sequence (P11940 whole entry, looked up): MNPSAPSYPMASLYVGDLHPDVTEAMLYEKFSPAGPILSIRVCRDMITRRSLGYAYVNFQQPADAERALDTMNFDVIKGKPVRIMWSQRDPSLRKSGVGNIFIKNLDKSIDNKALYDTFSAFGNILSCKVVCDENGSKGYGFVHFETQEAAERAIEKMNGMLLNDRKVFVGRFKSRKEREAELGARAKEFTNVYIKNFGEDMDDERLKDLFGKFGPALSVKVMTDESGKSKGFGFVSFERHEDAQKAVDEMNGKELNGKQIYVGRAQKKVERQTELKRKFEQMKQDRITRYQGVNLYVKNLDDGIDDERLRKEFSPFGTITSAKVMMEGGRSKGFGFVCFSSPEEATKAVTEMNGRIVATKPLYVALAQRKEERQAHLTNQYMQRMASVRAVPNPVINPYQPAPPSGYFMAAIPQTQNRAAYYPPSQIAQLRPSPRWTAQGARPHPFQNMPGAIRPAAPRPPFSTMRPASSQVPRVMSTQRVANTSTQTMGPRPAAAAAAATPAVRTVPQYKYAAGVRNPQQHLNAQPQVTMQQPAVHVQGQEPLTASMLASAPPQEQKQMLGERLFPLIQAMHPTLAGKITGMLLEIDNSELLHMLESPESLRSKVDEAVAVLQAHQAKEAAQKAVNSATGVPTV
Rce1 inhib: yeast Ras-converting enzyme inhibition; Q03530; yeast membranes, quenched prenylated peptide cleavage fluorescence; calls only; 290,000 tested, 0.27% active; AID 2563;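 active means fall in fluorescence gain of 50% or more versus controls, with final raw signal at or below 3038400; inconclusive means same 50% fall but final raw signal above 3038400; inactive means fall in fluorescence gain under 50%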;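 further: plate controls were neutral control wells for no effect and wells lacking membranes for full effect; tested at 10 µM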
CSC inhib: blocks cancer stem cells. 300,000 tested, 1.1% active. cancer stem cell-like cells viability, luminescence. inhibition, % at 7.5 µM. AID 2717;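 active means mean at 75% or more and at least half the replicates too; inconclusive means mean and replicates disagree; tested in HMLE shEcad cells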;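 further: 0% = median of negative and 100% = median of positive control wells; the first replicate is given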
eIF4H FP inh retest: second read-out of eIF4H FP inh, no call of its own (marks repeat the call); inhibition, %; compound at 20 µM; confirmation average;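 mean of two retest wells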
PABP polyA inh retest: second read-out of PABP polyA inh, no call of its own (marks repeat the call); inhibition, %; compound at 20 µM; confirmation repeats;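 mean of two retest wells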
MT1-MMP act inh RFP: also measured in MT1-MMP act inh; calls as there; RFP signal change, %; measured here: RFP expression control read;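 0 = vehicle wells; hits needed this value within 50% of zero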
* hit, by the source's call; i = inactive; u = inconclusive; x = no result given. A portion of the library; rates above refer to the full screens.

SMILES	UUG fidelity	eIF4H FP inh	MT1-MMP act inh	MT1-MMP act inh RFP	Env fusion inh	PABP polyA inh	Rce1 inhib	CSC inhib	others
Cc1[nH]n(-c2ccccc2)c(=O)c1C(c1ccc([N+](=O)[O-])cc1)c1c(C)[nH]n(-c2ccccc2)c1=O	x	5	16	-13	x	4	i	37
O=C(COc1ccc2ccccc2c1)N1CCN(C2CCN(Cc3ccccc3)CC2)CC1	3	1	10	0	19	-8	i	28
Clc1cnc(Oc2ccc(Oc3ncc(Cl)cc3Cl)cc2)c(Cl)c1	-25	2	-6	-4	x	-9	i	15
CCC(C(=O)N1CCC2(CC1)OCCO2)n1c2ccccc2c2nc(=O)cc(C)n21 (configuration not stated)	13	0	-3	2	16	4	i	-4
CCc1ccccc1N1C(=O)/C(=C/c2ccc(N3CCN(C)CC3)o2)C(=O)NC1=S	x	85	-33	34	2	8	i	4	eIF4H FP inh retest=-9;PABP polyA inh retest=0
CCOC(=O)c1cccc(NC(=O)c2c(O)[nH]c(=O)[nH]c2=O)c1	2	x	4	6	5	x	i	-6
Cc1sc2ncn(CC(=O)NCCCC(=O)N3CCC4(CC3)OCCO4)c(=O)c2c1C	x	-1	0	2	2	4	x	-2
CN1CC=C(/C=C/c2ccc(-c3ccccc3)cc2)CC1	x	0	x	x	x	9	i	63
Cc1ccc(N=C(N(C)C)P(=O)(N(C)C)N(C)C)cc1	x	7	-5	-2	5	8	i	-6
COC(=O)C1=C(c2ccc(OC(F)(F)F)cc2)C[C@@H]2CC[C@H]1N2C(=O)NCCOc1ccccc1Cl	8	x	-9	-18	13	x	x	24
Fc1ccc(CN2CCN(c3ccc(Cl)cc3)CC2)cc1	x	1	-4	-3	18	6	i	14
O=C1NC(=O)C(CCc2ccncc2)(Cc2ccc3c(c2)OCO3)C(=O)N1CCc1ccccc1 (configuration not stated)	-15	-2	-9	-14	-58	-8	i	11
O=C(O)c1ccccc1-c1ccc(C=C2C(=O)N(c3ccccc3)C(=S)N(c3ccccc3)C2=O)o1	-3	10	-9	8	0	12	i	7
CN1Cc2cnnn2-c2ccccc2C1C#N (configuration not stated)	-14	x	1	3	-15	x	x	x
CC1(C)CC[C@]2(C)CC[C@]3(C)C4C[C@@H]5OO[C@@]6(O5)C(CCCC6(C)C)[C@]4(C)CC[C@@]3(C)C2C1 (some centres not stated)	-3	x	-6	-12	x	x	x	-17
O=C1NC(=O)N(CCNc2ncc(C(F)(F)F)cc2Cl)C(=O)C1/C=N/OCc1c(F)cccc1Cl (configuration not stated)	x	-19	-3	4	x	-18	i	33
O=C(N=Nc1c(O)[nH]c(=O)[nH]c1=O)C1COc2cc3ccccc3cc2O1 (configuration not stated)	x	17	2	5	6	27	i	-4
N=c1c[n+](C2CCCCC2)[n-]o1	-6	-7	4	4	-8	-6	i	-14
C[C@]12C[C@@H](O)[C@H](O)CC1=CCC1C2CC[C@]2(C)C(=O)CCC12 (some centres not stated)	-4	x	-3	-2	-9	x	x	-6
CCC(=O)N1CC(=O)Nc2ccc(Br)cc2C1c1ccccc1 (configuration not stated)	-10	-5	-4	-5	8	2	i	-6
Cc1ccc(NC(=O)c2cn(CCC#N)nc2-c2ccc3c(c2)OCCO3)c([N+](=O)[O-])c1	x	-5	8	2	1	-2	i	25
O=c1[nH]c(=S)n(Cc2ccc(F)cc2)c(O)c1/C=N/N1CCCCC1	x	-8	0	0	5	-2	i	-10
COc1nc2ccccc2c(=O)n1-c1ccc(Cl)cc1	x	-15	6	0	x	0	i	-17
CCCc1[nH]nc2c1C1(C(=O)N(Cc3ccccc3)c3ccccc31)C(C(=O)OC)=C(N)O2 (configuration not stated)	0	-6	0	-2	6	4	i	-10
CCCCCCCn1c(=O)c(C(=O)Nc2cnccn2)c(O)c2ccccc21	6	-5	-10	-31	-8	16	i	70

The final six records of the section above come first, to join the parts:
SMILES	UUG fidelity	eIF4H FP inh	MT1-MMP act inh	MT1-MMP act inh RFP	Env fusion inh	PABP polyA inh	Rce1 inhib	CSC inhib	others
CCC(=O)N1CC(=O)Nc2ccc(Br)cc2C1c1ccccc1 (configuration not stated)	-10	-5	-4	-5	8	2	i	-6
Cc1ccc(NC(=O)c2cn(CCC#N)nc2-c2ccc3c(c2)OCCO3)c([N+](=O)[O-])c1	x	-5	8	2	1	-2	i	25
O=c1[nH]c(=S)n(Cc2ccc(F)cc2)c(O)c1/C=N/N1CCCCC1	x	-8	0	0	5	-2	i	-10
COc1nc2ccccc2c(=O)n1-c1ccc(Cl)cc1	x	-15	6	0	x	0	i	-17
CCCc1[nH]nc2c1C1(C(=O)N(Cc3ccccc3)c3ccccc31)C(C(=O)OC)=C(N)O2 (configuration not stated)	0	-6	0	-2	6	4	i	-10
CCCCCCCn1c(=O)c(C(=O)Nc2cnccn2)c(O)c2ccccc21	6	-5	-10	-31	-8	16	i	70
CN1C(=O)C(=Cc2cn(CC(=O)N3CCCCC3)c3ccccc23)C(=O)N(C)C1=O	-12	u	-3	1	x	u	i	-16
CC(C)N1CCN(c2ccc(O)cc2)CC1	9	24	-12	-2	-1	-13	i	3
COc1ccc(OCC(=O)Nc2ccc(Cl)cc2C(=O)c2ccccc2)cc1	3	0	x	x	x	-9	i	8
CN(C)S(=O)(=O)c1cc(NC(=O)COC(=O)Cc2ccccc2)ccc1Cl	x	-2	-3	-8	2	17	i	5
C#CC1(OC(=O)c2ccccc2)CC(C)N(C)CC1C (configuration not stated)	-6	4	-3	2	-3	8	i	-15
C[C@]12CCC3C(CC[C@H]4C[C@H](OC(=O)c5cccnc5)CC[C@]34C)C1CCC2=O (some centres not stated)	x	x	5	-11	6	x	x	20
C[C@]12CC[C@@H]3c4ccc(O)c(O)c4CC[C@H]3[C@@H]1CC[C@@H]2O	-11	1	4	-5	-1	-2	i	15
CCCn1ncc(CN2CCCC(C(=O)c3cccc(OC)c3)C2)c1C (configuration not stated)	x	-1	-2	0	5	1	i	3
CC(C)(C)n1nnnc1C(c1cccc2ccccc12)N1CCC2(CC1)C(=O)NCN2c1ccccc1 (configuration not stated)	-7	x	-7	-12	6	x	x	x
CCOC(=O)C1=C(C)OC(N)=C(C#N)C12C(=O)N(C)c1ccccc12 (configuration not stated)	x	-8	6	4	x	2	i	-5
O=P1(Oc2ccccc2)C[C@@H](O)[C@@H](O)[C@H](COCc2ccccc2)O1 (some centres not stated)	-19	0	2	3	28	-5	i	6
C/C=C/CC1(CC)C(=O)NC(=S)NC1=O	-15	-4	-7	2	-12	-2	i	7
Cc1cccc(CN(C)C)c1OC(=O)N(C)C	-18	0	-8	1	5	-18	i	-5
CC(=NCCN1CCCCC1)c1c(O)[nH]c(=O)[nH]c1=O	-16	8	-6	0	1	-6	i	-10
N#CCCn1cc(C(=O)NCc2ccccc2)c(-c2ccc3c(c2)OCCO3)n1	-7	2	-3	2	17	-1	i	x
COC(=O)C1=C(c2ccc(OC)c(OC)c2)C[C@@H]2CC[C@H]1N2C(=O)N1CCOCC1	8	x	4	5	10	x	x	-8
COc1cccc(CN2CCN(C(=O)COc3ccc4ccccc4c3)CC2)c1	3	-6	-3	-5	x	7	i	11
COc1ccc(CN2CCN(c3ccccc3F)CC2)c(OC)c1	x	-4	x	x	-63	34	i	-2
Cc1ccc2c(c1)C1C[N+](C)(CC(=O)c3ccc(Cl)cc3Cl)CCC1N2C(=O)c1ccc(F)cc1 (configuration not stated)	14	x	-4	0	-12	x	x	7
CCN(CC)S(=O)(=O)c1cccc(N=Nc2c(O)n(CC)c(=S)n(CC)c2=O)c1	-18	9	-4	-5	-74	-8	i	18
CN1CCc2cc(O)cc3c2[C@H]1Cc1ccc(O)c(O)c1-3	-45	x	4	-3	12	x	i	0
C[C@]12CC(=O)CC1CCC1C2CC[C@@]2(C)C1CC[C@@H]2O (some centres not stated)	-15	5	1	-1	-17	11	i	15
COc1cccc(C(c2nnnn2Cc2ccccc2)N2CCC3(CC2)C(=O)NCN3c2ccccc2)c1OC (configuration not stated)	5	x	2	-13	-64	x	x	x
CC(C)n1c(O)c(C2c3cc(Cl)ccc3Oc3[nH]c(=O)n(C(C)C)c(=O)c32)c(=O)[nH]c1=O (configuration not stated)	-17	12	-34	-33	x	0	i	x
O=S(=O)(c1ccc(F)cc1)N1CCCC1c1cccnc1 (configuration not stated)	-13	-5	0	4	5	0	i	0

Quoted at random: two entries already listed
SMILES	UUG fidelity	eIF4H FP inh	MT1-MMP act inh	MT1-MMP act inh RFP	Env fusion inh	PABP polyA inh	Rce1 inhib	CSC inhib	others
C[C@]12CC(=O)CC1CCC1C2CC[C@@]2(C)C1CC[C@@H]2O (some centres not stated)	-15	5	1	-1	-17	11	i	15
CCOC(=O)C1=C(C)OC(N)=C(C#N)C12C(=O)N(C)c1ccccc12 (configuration not stated)	x	-8	6	4	x	2	i	-5

Next part.
SMILES	UUG fidelity	eIF4H FP inh	MT1-MMP act inh	MT1-MMP act inh RFP	Env fusion inh	PABP polyA inh	Rce1 inhib	CSC inhib	others
COC(=O)C1=C(c2cccc(OCc3ccccc3)c2)C[C@@H]2CC[C@H]1N2C(=O)NCc1cc(C)oc1C(F)(F)F	-10	x	-9	-13	5	x	x	30
CNS(=O)(=O)c1ccc(-c2ccc(C=C3C(=O)NC(=O)NC3=O)o2)cc1	-24	u	1	6	-33	u	i	-18
CC(=NCc1ccco1)c1c(O)n(-c2ccccc2C)c(=O)[nH]c1=O	x	-5	-1	0	-7	-1	i	-20
Cc1ccc(S(=O)(=O)N(C)N=O)cc1	-16	x	-4	3	11	x	x	-10
O=C(c1ccc2c3c(cccc13)CC2)C1CCCN(CC2CC2)C1 (configuration not stated)	-6	4	-2	4	-3	-4	i	3
Nc1c2c(nc3sc4c(c13)CCCC4)CCCC2	-13	-4	-1	-2	-46	-2	i	16
c1ccc(C2NCc3ccccc3-n3cccc32)cc1 (configuration not stated)	-6	-6	-4	0	23	44	i	3
CCCCC(=O)N/N=C/c1c(O)n(CC)c(=S)n(CC)c1=O	-25	u	-20	-6	29	10	i	-1
COc1ccccc1CCNC1CCC(C(C)(C)C)CC1 (configuration not stated)	-10	-7	-1	1	x	2	i	32
O=[N+]([O-])/C=C1/NCCN1Cc1ccc(Cl)nc1	x	-8	1	2	12	2	i	-6
CC/C(=N\NC(=S)Nc1ccccc1)c1c(O)[nH]c(=O)[nH]c1=O	-20	5	-3	2	-1	0	i	-15
CC(=O)Nc1ccccc1C(=O)OCC(=O)c1ccc2c(c1)OCCO2	x	-6	-5	-2	-6	16	i	-4
Cc1cc(N2C(=O)C3CCCN3C2c2ccc(Cl)c(Cl)c2)no1 (configuration not stated)	-13	5	3	0	14	1	i	x
O=Cc1cn(Cc2ccc(F)cc2Cl)c2ccccc12	4	1	-4	-15	x	1	i	7
O=C(O)c1cc[c]([Hg][Cl])cc1	-13	x	-2	2	x	x	x	-5
COC(=O)C1=C(c2c(C)noc2C)C[C@@H]2CC[C@H]1N2C(=O)NCc1ccc(F)cc1	-12	x	-1	0	-6	x	x	-8
FC(F)(F)c1ccc(CNCCc2c[nH]c3ccccc23)cc1	-21	-1	1	1	32	9	i	24

Compound activity: PubChem BioAssay, several laboratories
